From PubChem
AID923: qHTS Assay for Allosteric/Competitive Inhibitors of Caspase-1: Spectroscopic Profiling in AFC Spectral Region. compound fluorescence, AFC spectral region (405/520 nm); almost no hit is shown here. Potency, µM (titrated, usually from 57.5 µM), for inactives: at the highest dose fluorescence increase, actives largely listed as activators. 75,000 tested, 1.1% active; active means well fitted activation curve with a large enough effect; inconclusive means small, poorly fitted or top-dose-only effect;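 further: potency means the concentration at half of the fitted maximal effect; 0% is about no effect; scaled to a free AFC standard on each plate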
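Compound autofluorescence profiled at 405 nm ex/520 nm em during kinetic caspase 1 run (50 nM enzyme, 5 uM Ac-WEHD-AFC, HEPES pH 7.5, 10 mM DTT). Titration up to 57 uM; baseline from regression intercept, normalized to AFC standard curve.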
A647 fluor: compound autofluorescence in A647 spectral region | Compound fluorescence, A647 channel (570/671 nm), Tris buffer | max dye-equivalent concentration, M | 59,000 tested, under 10 active | AID 592; active means above 1 µM dye equivalent; inconclusive means 0.1 to 1 µM; inactive means 0.1 µM or less;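 further: values scaled relative to a standard on each plate; highest value over a series up to 38 µM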
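Spectral profiling of library compounds in pH 8.0 Tris: 15 min room-temperature incubation, single ex/em pair (570/671 nm), response normalized to Alexa 647 equivalents.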
Resorufin fluor: resorufin region autofluorescence; Compound fluorescence, resorufin region 547/598 nm, buffer; active compounds read high; max dye-equivalent concentration, M; 59,000 tested, 0.04% active; active = above 10 nM dye equivalent; inconclusive = 1 to 10 nM; inactive = 1 nM or less; a few of its hits are not listed in these tables; further: highest value over a series up to 38 µM
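Compounds in 100 mM Tris buffer, pH 8.0, incubated 15 min at room temperature, then read with 547 nm excitation and 598 nm emission filters. Fluorescence was converted to dye-equivalent concentration using an on-plate six-point resorufin standard curve.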
A488 fluor: compound autofluorescence in A488 spectral region; compound autofluorescence, A488 spectral region, dye equivalency; active compounds read high; max dye equivalency, M; 59,000 tested, 0.1% active; AID 591; active = above 10 nM dye equivalent; inconclusive = 1 to 10 nM; inactive = 1 nM or less; about half of its hits are not listed in these tables;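 further: highest value over a series up to 38 µM; compound alone in buffer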
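Compound autofluorescence was read in 100 mM Tris pH 8.0 after 15 min at room temperature, ex 480 nm/em 540 nm. Intensities were converted to A488 dye-equivalent concentration using an on-plate six-point A488 standard curve.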
TSHR agonist: agonists of human thyroid stimulating hormone receptor | HEK293-CNG-TSHR cells (CNG channel as cAMP sensor), membrane potential dye, cAMP | AID 926 | 73,000 tested, 0.48% active | Potency, µM (highest dose often 57.1 µM), for the others: at the highest dose activation, usual class: activators | P16473; active = well fitted activation curve of enough size with the parental cells flat; inconclusive = any curve in the parental cells; inactive = parental cells flat and receptor cells flat or falling; further: potency means the concentration at half of the fitted maximal effect; % of control where 0% means no effect; weak receptor curves with flat parental cells got no call and are not listed
Target sequence (P16473 whole entry, looked up): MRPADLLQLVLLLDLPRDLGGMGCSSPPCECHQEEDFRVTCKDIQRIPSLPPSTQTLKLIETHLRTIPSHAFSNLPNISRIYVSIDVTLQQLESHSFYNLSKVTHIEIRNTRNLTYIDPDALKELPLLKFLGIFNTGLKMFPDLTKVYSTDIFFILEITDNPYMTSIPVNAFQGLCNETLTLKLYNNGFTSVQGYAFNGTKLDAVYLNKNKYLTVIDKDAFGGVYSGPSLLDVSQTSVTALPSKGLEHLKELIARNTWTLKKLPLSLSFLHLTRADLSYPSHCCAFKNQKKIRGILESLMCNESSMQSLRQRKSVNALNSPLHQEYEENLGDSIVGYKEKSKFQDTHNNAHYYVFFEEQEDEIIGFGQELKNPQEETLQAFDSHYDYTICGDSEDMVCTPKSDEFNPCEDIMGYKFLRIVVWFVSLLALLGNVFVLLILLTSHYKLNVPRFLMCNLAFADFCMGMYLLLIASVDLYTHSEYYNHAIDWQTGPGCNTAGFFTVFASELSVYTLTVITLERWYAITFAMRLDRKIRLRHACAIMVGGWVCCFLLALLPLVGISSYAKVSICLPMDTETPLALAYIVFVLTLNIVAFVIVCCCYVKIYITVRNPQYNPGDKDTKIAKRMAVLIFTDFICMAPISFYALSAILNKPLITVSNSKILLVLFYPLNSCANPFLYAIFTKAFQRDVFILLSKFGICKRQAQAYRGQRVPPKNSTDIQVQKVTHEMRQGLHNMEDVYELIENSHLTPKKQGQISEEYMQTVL
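HEK 293 cells stably expressing TSHR and a modified CNG channel, with CNG-only parental cells as counterscreen, were preloaded 60 min at room temperature with membrane potential dye containing 100 uM RO 20-1724. Compound exposure was 30 min, and depolarization was read as fluorescence at 590 nm.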
An asterisk follows results filed as active; i = inactive; ? = inconclusive; . = no result given; & = joins results of further samples; [ ] = dose if it differs, or a comment. Some of the compounds tested. The share of hits here may be higher or lower than overall.

SMILES | AID923 | A647 fluor | Resorufin fluor | A488 fluor | TSHR agonist
CN1CCN(C(=O)c2ccc(COc3ccc(Cl)cc3Cl)cc2)CC1 | -1.2% | 1e-09 | i | i | 12.3%
COc1ccc(C2C(C(C)=O)=C(C)Nc3ncnn32)cc1OC (centres undefined) | -0.6% | 2.22e-08 | i | i | 0.5%
O=C(c1cccs1)N1CCC(N2CCN(c3ccccc3)CC2)CC1 | . | 1.1e-08 | i | i | .
COc1ccccc1OCc1nc2ccccc2[nH]1 | 0.9% | 2.34e-08 | i | i | -6.5%
COc1cccc(Cn2c(=O)cnc3cnc(Oc4ccccc4)nc32)c1 | -0.1% | 1e-09 | i | i | 1.6%
COC(=O)c1ccccc1NC(=O)C1CCCCC1C(=O)O (centres undefined) | 2.5% | 8.7e-09 | i | i | ?
N#CC(C(=O)NCc1ccco1)c1nc2ccccc2nc1N1CCOCC1 (centres undefined) | 10.3% | 1e-09 | i | i | .
CC1(C)SC2c3ccccc3C(=O)N2[C@@H]1C(=O)NCc1ccco1 (some centres undefined) | -1.9% | 1e-09 | i | i | 9.2%
CCC1CCCCN1CCCNC(=O)COc1cc(=O)n(C)c2ccccc12 (centres undefined) | 0.2% | 5.6e-09 | i | i | 5.2%[11.4 µM]
CCC(=O)OCCn1c(=O)c2cc3c(=O)n(CCOC(=O)CC)c(=O)c3cc2c1=O | -0.4% | . | . | . | -0.3%
CN1CCN(c2ccccc2NC(=O)c2cc(Br)ccc2Cl)CC1 | -1.1% | 8.5e-09 | i | i | 11.5%
Cn1c(=O)c2c(nc(CN3CCC(C(N)=O)CC3)n2CCc2ccccc2)n(C)c1=O | -1.4% | 3.11e-08 | i | i | 7.7%
Cc1noc(/C=C/N(C)C)c1S(=O)(=O)N1CCCC(C(=O)NCCC2=CCCCC2)C1 (centres undefined) | 0.4% | . | . | . | -11.1%
O=C1c2ccncc2C(=O)N1CO | -0.3% | 4.37e-08 | i | i | 21.0%
Cc1cc(NC(CC(C)C)C(=O)O)nc(Cc2ccccc2)n1 (centres undefined) | . | 2.6e-09 | i | i | .
O=C(O)CCCC(=O)Nc1cccc(C(F)(F)F)c1 | 0.5% | . | . | . | -3.9%
O=P1(O)C=C(c2ccccc2)NC(c2ccccc2)=C1 | 0.2% | 1e-09 | i | i | 4.2%
CSc1nc2ccccc2n1CC(=O)Nc1ccccc1 | -0.7% | . | . | . | 29.3%
Cc1ccc(-c2noc(CNCCCN(C)C)n2)cc1 | 2.9% | 1e-09 | i | i | ?
CCCS(=O)(=O)Nc1c(C(=O)O)[nH]c2ccccc12 | 0.0% | 1e-09 | i | i | 8.7%
O=C(CS(=O)(=O)Cc1ccccc1)Nc1nc2ccccc2s1 | -3.9% | 2.5e-09 | i | i | 1.6%
COc1ccc(S(=O)(=O)N2CCCC(C(=O)NCc3ccncc3)C2)cc1 (centres undefined) | -2.4% | 1e-09 | i | i | -0.4%
O=S(=O)(Cc1ccccc1)NCc1cccnc1 | -2.2% | 4.73e-08 | i | i | 1.4%
CC(=O)N1CCC2(CCCN(c3cccc(-c4ccccc4)c3)C2)CC1 | 1.9% | 1.12e-08 | i | i | ?
COc1ccc2c(c1)c(=O)cc(C)n2CC(=O)NCc1ccco1 | -0.8% | 1.7e-09 | i | i | ?
C[C@@H](CCc1ccc(O)cc1)NCCc1ccc(O)c(O)c1 | -0.4% | 2.1e-09&1e-09 | i | i | ?
Cc1nc(CN2CCCCC2)c(O)c(=O)[nH]1 | 1.6%[11.5 µM] | 1e-09 | i | i | -1.1%[11.4 µM]
CC(=O)N1CCc2cc(S(=O)(=O)NC(CC(C)C)C(=O)Nc3ccc4c(c3)OCCO4)ccc21 (centres undefined) | -0.4% | 6.8e-09 | i | i | 1.3%
CCc1nc(-c2cc3ccc(C)cc3[nH]c2=O)no1 | -1.0% | 7.5e-09 | i | i | 5.4%
O=C(CCOc1ccccc1)NCc1ccccc1 | 4.6% | 1e-09 | i | i | .
OCn1ncn(-c2ccccc2)c1=S | 0.0% | 5e-09 | i | i | -0.7%
COc1cc(C)cc(OC)c1/C=C\C(=O)O | 2.6%[11.5 µM] | 3.95e-08 | i | i | -0.1%[11.4 µM]
CC1Cc2ccccc2N1C(=O)COC(=O)C1=COCCO1 (centres undefined) | -0.2% | 8.4e-09 | i | i | -19.7%
Cc1ccc(-n2nnnc2SCCNS(=O)(=O)c2ccccc2)cc1C | -0.7% | . | . | . | ?
COc1ccc(CC(=O)OCc2cc3cccc(C)c3[nH]c2=O)cc1 | 1.5% | 2.37e-08 | i | i | .
Cc1oc(C)c(C(=O)NCCCC(=O)O)c1C(=O)NCCCC(=O)O | 1.0% | 1.48e-08 | i | i | 4.6%
c1ccc(-n2nnnc2Oc2cccc3cccnc23)cc1 | 0.7% | 2.7e-09 | i | i | 0.9%
O=C(O)CP(=O)(c1ccccc1)c1ccccc1 | 0.5% | . | . | . | -7.3%
COc1ccc(CCNC(=O)c2cnccn2)cc1 | 2.6% | . | . | . | -3.1%
COc1ccc(COC(=O)N/N=C2/C[C@@H](O)[C@@H](O)[C@@H]3[C@@H]4C(=O)N(c5cccc(Oc6ccccc6)c5)C(=O)[C@H]4CC[C@H]23)cc1 | 1.2%[11.5 µM] | . | . | . | 21.3%[11.4 µM]
Cc1ccsc1C1C2=C(CCCC2=O)Nc2ncnn21 (centres undefined) | 2.0% | 1.2e-09 | i | i | 6.1%
CCN(CC)CCN1C(=O)c2oc3ccccc3c(=O)c2C1c1ccc(C)cc1 (centres undefined) | 0.5% | 1e-09 | i | i | -4.0%
COc1cc(NC2=CC(=O)CC(C)(C)C2)cc(OC)c1 | 0.4% | . | . | . | 28.8%[11.4 µM]
O=C(Nc1nnc(CCc2ccccc2)s1)C1CCCO1 (centres undefined) | -0.5% | 1.37e-08 | i | i | -0.8%
Cc1nn(Cc2ccc(Cl)c(Cl)c2)c(C)c1NC(=O)c1cc(CC(C)C)on1 | 1.1% | . | . | . | ?
CC(=O)N1CCc2cc(S(=O)(=O)CCC(=O)O)ccc21 | -0.2% | 1.2e-09 | i | i | -4.0%
Cn1nnc(NCc2cc(Br)ccc2OCc2cccs2)n1 | -1.7% | 3.38e-08 | i | i | .
CC(=O)NC(C)C(=O)OCC(=O)Nc1ccc(Br)cc1 (centres undefined) | 1.9% | . | . | . | -0.9%

Compound profiles, as listed above. Order of screens: AID923 | A647 fluor | Resorufin fluor | A488 fluor | TSHR agonist
Cc1oc(C)c(C(=O)NCCCC(=O)O)c1C(=O)NCCCC(=O)O in the list: 1.0% | 1.48e-08 | i | i | 4.6%
Cc1nn(Cc2ccc(Cl)c(Cl)c2)c(C)c1NC(=O)c1cc(CC(C)C)on1 in the list: 1.1% | . | . | . | ?
CC(=O)N1CCc2cc(S(=O)(=O)NC(CC(C)C)C(=O)Nc3ccc4c(c3)OCCO4)ccc21 (centres undefined) in the list: -0.4% | 6.8e-09 | i | i | 1.3%
Cc1nc(CN2CCCCC2)c(O)c(=O)[nH]1 in the list: 1.6%[11.5 µM] | 1e-09 | i | i | -1.1%[11.4 µM]
COc1ccccc1OCc1nc2ccccc2[nH]1 in the list: 0.9% | 2.34e-08 | i | i | -6.5%

Later entries
SMILES | AID923 | A647 fluor | Resorufin fluor | A488 fluor | TSHR agonist
Cc1cccc(NC(=O)CC2SC(=NC3CCCCC3)NC2=O)c1 (centres undefined) | -0.2% | 1e-09 | i | i | 0.0%
CCC(C)(C)NC(=O)CN(CC1CCCO1)C(=O)CCC(=O)Nc1nccs1 (centres undefined) | -1.6% | 4e-09 | i | i | ?
CC(=O)N1C(c2ccccc2)CC(=O)OC1c1ccc2c(c1)OCO2 (centres undefined) | 0.3% | 3e-09 | i | i | .
Cc1ccc(N(C(=O)Nc2ccccc2)C2=NCC(C)S2)cc1 (centres undefined) | 0.4% | 1e-09 | i | i | 27.6%
CC(=O)Nc1ccc(NC(=O)Cn2c(CC(=O)N3CCCC3)nc3ccccc32)cc1 | -0.4% | 4e-09 | i | i | -2.4%
CC(NCC1(N2CCOCC2)CCCCC1)C(=O)N1CCc2ccccc21 (centres undefined) | 0.0% | 7e-09 | i | i | 16.3%
COc1ccc(-c2nnc3ccc(SCC(=O)N4CCCCCC4)nn23)cc1OC | -2.3% | . | . | . | 8.1%
CCO/C(C)=C1\C(=O)N(CC)c2ccccc21 | 0.6% | . | . | . | -7.1%
O=C(Nn1cnc2ccccc2c1=O)c1ccc(F)cc1Cl | 0.3% | 1e-09 | i | i | 1.4%
COc1ccc(N2CCN(C(=O)c3ccc(S(=O)(=O)N4CCOCC4)cc3)CC2)cc1 | -1.2% | 1.01e-08 | i | i | -3.9%
COc1ccc(N2CCN(Cc3cc(=O)oc4cc(-c5ccccc5)c(O)cc34)CC2)cc1 | 1.4% | 1e-09 | i | i | -2.8%
CCOC(=O)C1CCN(C(=O)C2CC(=O)N(c3ccc(C)cc3)C2)CC1 (centres undefined) | -0.4% | 1e-09 | i | i | 3.2%
CCOc1ccc2c(c1)cc(CN(C(=O)CC)C1CCCCC1)c1nnnn12 | 1.9% | 3.75e-08 | i | i | ?
O=C(Nc1ccc2c(c1)OCO2)N1CCOCC1 | -1.9% | 3.7e-09 | i | i | 2.1%
CC(C)(C)c1cc(Cc2ccccc2)[nH]n1 | -0.7% | 2.28e-08 | i | i | ?
O=C(CCN1CCOCC1)Nc1ccc(F)cc1F | -1.5%[11.5 µM] | 1.7e-08 | i | i | 2.2%[11.4 µM]
Cc1ccc(NC(=O)CC2SC3=NCCN3C2=O)cc1 (centres undefined) | -2.6% | 1.6e-08 | i | i | -0.2%
CCCCCOC(=O)Cc1c(C)nc(-c2ccccc2)[nH]c1=O | . | 8.7e-09 | i | i | .
CCOc1ccccc1N(CC(=O)NC1CCCC1)C(=O)CCCC(=O)Nc1ccccn1 | -1.6% | 1e-09 | i | i | 5.2%
CCOC(=O)C1CCN(C(=O)c2cc(OCC)c(OCC)c(OCC)c2)CC1 | -0.3% | 1.77e-08 | i | i | -1.1%
O=C(O)CCCCCNC(=O)c1cccc(Br)c1 | 0.4% | . | . | . | -0.8%
O=C1C=C(N2CCN(C(=O)c3ccccc3)CC2)C2(CCCCC2)O1 | 1.2% | . | . | . | -4.3%
O=C(O)c1cc(O)c2c(c1)C(=O)c1cccc(O)c1C2=O | 0.7%&8.0% | 2.33e-08 | i | ? | ?
O=C(COC(=O)c1ccncc1)NCc1ccccc1 | 1.4% | 1e-09 | i | i | ?
CC1(C)CC(=O)C(C(C2=C(O)CC(C)(C)CC2=O)c2cccnc2)C(=O)C1 (centres undefined) | -1.9% | 1.63e-08 | i | i | -3.3%
COc1ncc2ncc(=O)n(Cc3ccc(F)cc3)c2n1 | 1.2% | 2.13e-08 | i | i | ?
O=C(c1cc(-c2cccc(O)c2)on1)N1CCc2ccccc2C1 | 2.7% | . | . | . | ?
CCc1ccc(C2C(C#N)=C(N)SC(N)=C2C#N)cc1 | 1.2% | . | . | . | 2.7%[11.4 µM]
O=C(O)C1CC=CCC1C(=O)NCc1ccccc1 (centres undefined) | 2.6% | 2.2e-09 | i | i | .
CCc1ccc(NC(=O)CSc2nnc(-c3ccccn3)n2C)cc1 | 0.1% | 7e-09 | i | i | 10.5%
Cc1ccc(NC(=O)CSc2nnc(Cc3cccn3C)n2-c2ccc(F)cc2)c(C)c1 | 2.0% | . | . | . | ?
O=C(O)CCSCC(=O)c1ccc2c(c1)OCCO2 | -1.6% | 4.49e-08 | i | i | 21.1%
CCOc1ccc(N2C(=O)CC(N(O)c3ccccc3)C2=O)cc1 (centres undefined) | -0.3% | 2e-09 | i | i | -14.4%
O=C(c1cccc(C(F)(F)F)c1)N1CCN(C2CCCCC2)CC1 | -1.6% | 4.27e-08 | i | i | 5.3%
